Screens as filed in PubChem.
Mtb bLac sens: beta-lactam sensitization of Mtb H37Rv; M. tuberculosis H37Rv growth with meropenem, percent inhibition; hits of this screen are not shown here; actives 0.27% (n = 330,000); inhibition, % at 25 µM; AID 434955;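 active = about 74% or more and at least 40 points above the plate without the antibiotic, then above 30% in a dose series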;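 also: growth measured after seven days incubation then overnight dye step; 0% = bacteria only wells and 100% = bacteria with antibiotic; twin plates without the antibiotic show which effects depend on it; some results filed as inactive read as strong as hits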
YopH PTP inh: blocks Yersinia enterocolitica YopH tyrosine phosphatase | fluorescence Ex485/Em525 | inhibition, %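 (about 10 µM by stock and volumes)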 | actives 0.16% (n = 140,000) | AID 898;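 active = inhibition of 50% or more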;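 also: controls were vehicle for no effect and minimum signal wells for full effect; inactives centre near -20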
Mtb H37Rv: M. tuberculosis H37Rv growth inhibitors, H37Rv strain (AID 1626). M. tuberculosis H37Rv growth inhibition; higher % means a stronger effect. inhibition, % at 10 µM; hits with a dose series show IC50 in µM. actives 0.95% (n = 220,000);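 active = confirmed in a dose series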;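 also: bacteria incubated seven days before Alamar blue readout; 0% = bacteria only wells and 100% = bacteria with antibiotic wells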
Arbovirus inh: blocks arbovirus infection. arbovirus infection cell-based antiviral screen. actives 0.37% (n = 200,000). inhibition, % at 10 µM;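 active = inhibition from about 30%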;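 also: bluetongue infection of BSR cells; cell survival read as ATP light after 72 h; 0% = infected wells without compound and 100% = uninfected wells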
RecA intein inh: blocks M. tuberculosis RecA intein splicing | AID 2221 | P9WHJ3 | cell-free RecA intein splicing, fluorescence | inhibition, %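 (about 9 µM by stock and volumes)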 | actives 0.75% (n = 290,000); in the data active = inhibition above about 30%;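 also: 0% = vehicle wells and 100% = reference inhibitor control wells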
Target sequence (P9WHJ3 whole entry, looked up): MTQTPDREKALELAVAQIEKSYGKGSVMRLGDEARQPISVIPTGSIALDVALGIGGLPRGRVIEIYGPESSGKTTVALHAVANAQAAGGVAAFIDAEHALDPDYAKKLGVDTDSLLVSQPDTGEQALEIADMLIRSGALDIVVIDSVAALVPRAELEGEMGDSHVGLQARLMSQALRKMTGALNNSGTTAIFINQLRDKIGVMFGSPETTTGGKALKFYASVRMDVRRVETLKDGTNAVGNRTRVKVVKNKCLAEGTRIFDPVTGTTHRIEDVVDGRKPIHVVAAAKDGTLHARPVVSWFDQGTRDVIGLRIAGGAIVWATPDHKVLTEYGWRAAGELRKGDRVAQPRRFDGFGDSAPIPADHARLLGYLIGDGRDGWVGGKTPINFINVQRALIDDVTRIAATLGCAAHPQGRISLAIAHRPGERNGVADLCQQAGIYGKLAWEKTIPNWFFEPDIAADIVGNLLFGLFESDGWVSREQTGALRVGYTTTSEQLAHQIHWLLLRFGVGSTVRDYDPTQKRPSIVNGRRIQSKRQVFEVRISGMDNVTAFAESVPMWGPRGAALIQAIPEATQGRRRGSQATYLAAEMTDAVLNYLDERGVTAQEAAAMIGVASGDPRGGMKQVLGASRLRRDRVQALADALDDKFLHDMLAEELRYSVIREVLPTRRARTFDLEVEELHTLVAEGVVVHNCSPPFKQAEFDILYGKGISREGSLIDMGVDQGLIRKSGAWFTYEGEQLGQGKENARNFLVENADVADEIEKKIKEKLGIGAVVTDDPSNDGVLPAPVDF
Arbovirus inh repeat: recorded beside Arbovirus inh, whose call it bears; inhibition, %; measured here: 10K subset replicate screen; many hits read low in the repeat;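 first of two repeat runs on a subset; 0% = infected and 100% = uninfected wells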
* marks the source's active call; other numbers are inactive results; . = no result given. The list is partial. The share of hits here may be higher or lower than overall.

SMILES	Mtb bLac sens	YopH PTP inh	Mtb H37Rv	Arbovirus inh	RecA intein inh	others
CC(C)(C)SCCNC(=O)CN(c1ccccc1)S(=O)(=O)c1ccc(F)cc1	1.2	.	1.0%	4.7	6.5
CC1CCc2c(sc(NC(=O)c3ccc(-c4ccccc4[N+](=O)[O-])o3)c2C#N)C1 (stereo unspecified)	1.7	-4.2	4.2%	3.2	.
CC(=O)Nc1ccc(NC(=O)CCSCCc2ccccn2)cc1	0.4	.	-0.2%	5.3	-1.3
O=C(CC1c2ccccc2Oc2ccccc21)N1CCN(c2ccccn2)CC1	3.1	-49.7	-8.7%	-4.6	.	Arbovirus inh repeat=-12.5
CCCCC(=O)OCc1nc(N)nc(Nc2ccccc2C)n1	-0.9	-10.0	11.9%	-1.5	-0.8
O=C(NC1CCCCC1)C(c1ccc(F)cc1)N(C(=O)c1csnn1)C1CCCC1 (stereo unspecified)	0.2	.	.	.	-1.4
CCN(CC)CCCNC(=O)c1cc2nc3c(c(C(F)(F)F)n2n1)CCc1ccccc1-3	-2.5	.	4.0%	-12.4	-0.7
O=C(NCC1CCCO1)c1ccccc1-c1nc(-c2ccc(F)cc2)no1 (stereo unspecified)	-6.3	-30.3	1.5%	-5.2	0.9
COc1ccc(C(=O)/C=C/c2ccc(OC3CSC3)cc2)cc1OC	3.0	-26.9	17.4%	19.5	4.9
CCC1=NN2C(=N)/C(=C/c3ccc(OS(=O)(=O)c4ccccc4)cc3)C(=O)N=C2S1	1.3	.	.	.	1.7
COc1ccc(C(NC(=O)C2C3C=CC(C3)C2C(=O)O)c2ccccc2)cc1 (stereo unspecified)	-0.1	.	-0.2%	-0.6	-1.9
NC(=O)CSc1nc2ccc([N+](=O)[O-])cc2[nH]1	-1.3	.	-6.7%	6.4	0.3
Cc1ccc(S(=O)(=O)N2CCCCC2)cc1NC(=O)CCc1nc2ccccc2c(=O)[nH]1	-5.9	.	.	.	0.0
Cc1ccccc1-c1nn(-c2ccc(F)cc2F)cc1CNC1CC1	-4.6	.	-0.9%	-0.7	.
CCCS(=O)(=O)c1cn2cccc(N)c2c1S(=O)(=O)CCC	11.6	-32.6	-3.4%	5.9	1.1
Cc1nc2ccc(NC(=O)CSc3nnc(C)s3)cc2[nH]1	-7.3	.	.	.	-0.2
COc1ccc(NC(=O)N2CCC(c3nc4ccccc4[nH]3)CC2)cc1	-0.8	.	65.1%	-5.2	1.6
Cc1cccc(Sc2ccc([N+](=O)[O-])cc2[N+](=O)[O-])n1	11.8	0.1	20.3%	7.5	3.7
O=C(NCCc1c[nH]c2ccc(Cl)cc12)c1cccnc1	0.2	-17.1	-4.4%	-1.3	-1.7
CC(C)N1CCN(Cc2cccc3c2OCO3)CC1CCO (stereo unspecified)	3.4	.	7.3%	-0.7	-6.6
CC1(CCl)N([O-])C2=C(CCCC2)[N+]1=O (stereo unspecified)	2.0	.	-11.1%	.	1.1
Cn1c(=O)c2[nH]c(N3CCOCC3)nc2n(-c2ccccc2)c1=O	1.0	-33.4	-15.9%	2.5	-1.7
Nc1ccc(-c2nc3ccc(-c4nc5ccccc5o4)cc3[nH]2)cc1	94.4	-38.0	1.2%	-26.5	-11.6
COc1ccccc1OCc1nnc(SCC(=O)c2cc(Cl)ccc2OC)o1	9.3	-31.0	-3.0%	1.8	6.7
CCCCc1ccc(CC2S/C(=C(\C#N)C(=O)N3CCOCC3)N(c3ccccc3)C2=O)cc1 (stereo unspecified)	-0.7	1.9	-17.1%	5.0	2.6
O=C(CCNC(=O)c1ccc(Cl)cc1)Nc1ccccc1N1CCCCC1	-7.2	.	.	.	6.8
Cc1cc(C(C2C(=O)CC(C)(C)CC2=O)C2C(=O)CC(C)(C)CC2=O)cc(C)c1OC(F)F	3.7	.	.	.	-1.7
CCC(=O)Nc1ccc(Nc2ccccc2)cc1	17.3	-16.1	3.3%	-8.0	2.9
CCCCCC1CC(CC(=O)NC(=S)Nc2ccccc2Cl)C(=O)O1 (stereo unspecified)	8.2	.	-2.1%	5.8	3.6
CN(C(=O)COC(=O)CSc1ccc([N+](=O)[O-])cc1)C1CCS(=O)(=O)C1 (stereo unspecified)	-0.1	.	.	.	-2.7
CCOC(=O)C1CCCN(CC(O)COc2cccc(C)c2)C1 (stereo unspecified)	-2.3	-16.7	2.7%	-3.4	-0.4
CCOc1ccc(C(=O)NCCO)cc1	-0.2	.	2.8%	-2.4	-0.5
C#Cc1ccc([C@@H]2C=C(C(=O)Nc3ccccc3)O[C@H](OCC)[C@H]2CCCO)cc1	4.9	.	.	-2.9	9.3
Cc1nccn1CCc1nc(N)nc(N)n1	-7.1	-14.8	-8.5%	1.4	1.5
COc1cc(/C=N/NS(=O)(=O)c2ccc(C)c([N+](=O)[O-])c2)cc([N+](=O)[O-])c1O	11.0	.	.	.	-1.4
COCCN(C(=O)CCc1nnc(CCc2c[nH]c3ccccc23)o1)C(C)C	-1.6	.	4.3%	1.1	0.8
Cc1cccc(Nc2nc(NCc3ccco3)nc(N)c2[N+](=O)[O-])c1	11.0	.	-2.5%	.	0.1
COc1ccc2c(c1OC)C(=O)OC2C1c2cc3c(cc2CCN1C)OCO3 (stereo unspecified)	4.2	.	.	.	0.9
Cc1cccc(CCNC(=O)Cn2ncc3c([nH]c4ccc(C)cc43)c2=O)c1	2.6	.	.	.	1.0
Cc1ccc(C(=O)NCCNC(=O)c2ccccc2)cc1	-8.3	.	2.8%	1.8	0.4

7 neighbouring compounds already listed, quoted:
SMILES	Mtb bLac sens	YopH PTP inh	Mtb H37Rv	Arbovirus inh	RecA intein inh	others
CC1CCc2c(sc(NC(=O)c3ccc(-c4ccccc4[N+](=O)[O-])o3)c2C#N)C1 (stereo unspecified)	1.7	-4.2	4.2%	3.2	.
CC(=O)Nc1ccc(NC(=O)CCSCCc2ccccn2)cc1	0.4	.	-0.2%	5.3	-1.3
O=C(CC1c2ccccc2Oc2ccccc21)N1CCN(c2ccccn2)CC1	3.1	-49.7	-8.7%	-4.6	.	Arbovirus inh repeat=-12.5
CCCCC(=O)OCc1nc(N)nc(Nc2ccccc2C)n1	-0.9	-10.0	11.9%	-1.5	-0.8
O=C(NC1CCCCC1)C(c1ccc(F)cc1)N(C(=O)c1csnn1)C1CCCC1 (stereo unspecified)	0.2	.	.	.	-1.4
CCN(CC)CCCNC(=O)c1cc2nc3c(c(C(F)(F)F)n2n1)CCc1ccccc1-3	-2.5	.	4.0%	-12.4	-0.7
O=C(NCC1CCCO1)c1ccccc1-c1nc(-c2ccc(F)cc2)no1 (stereo unspecified)	-6.3	-30.3	1.5%	-5.2	0.9

(continued)
SMILES	Mtb bLac sens	YopH PTP inh	Mtb H37Rv	Arbovirus inh	RecA intein inh	others
O=C(CSc1nnc(CNC(=O)C23CC4CC(CC(C4)C2)C3)n1-c1ccccc1)Nc1ccccc1	4.7	-17.7	4.0%	-12.8	1.6
COc1cc([N+](=O)[O-])cc2sc(NC(=O)C3CC3)nc12	3.9	.	-6.5%	-3.3	0.2
CCCc1nnc(NC(=O)CCC(=O)N2CCN(Cc3cc(Cl)ccc3OC)CC2)s1	3.0	.	.	.	-0.7
COc1ccc(C(N)=O)cc1N	-6.5	1.5	-1.9%	1.4	-2.7
COc1ccccc1Nc1nc(N)nc(CN2CCC(C)CC2)n1	19.7	.	0.9%	4.0	0.1
CCOc1cc(NC(=S)NCCCOC)c(OCC)cc1NC(=O)c1ccco1	8.9	-18.4	9.4%	-7.7	0.8
C/C(=N\NC(=S)NCc1ccccc1)c1ccc2ccccc2c1	0.4	-12.1	11.0%	2.7	4.2
CCOc1ccc(NC(=O)COC(=O)C2(C)CC2(Cl)Cl)c([N+](=O)[O-])c1 (stereo unspecified)	91.8	.	3.1%	5.9	6.2
CC1=C(C(=O)OCc2ccccc2)C(c2ccccc2-c2ccccc2)NC(=O)N1CCCCCC(=O)O (stereo unspecified)	7.0	-28.8	-2.4%	-3.8	8.0
Cc1ccc(S(=O)(=O)N2CCOCC2)cc1C(=O)OC(C)C(=O)c1ccccc1 (stereo unspecified)	-4.9	.	.	.	1.7
COC(=O)c1cccc(NC(=O)Cn2cnc3c2c(=O)n(C)c(=O)n3C)c1	-2.8	.	-3.4%	.	3.2
Cc1ccc(C2C3=C(CC(C)(C)CC3=O)OC3=C2C(=O)CC(C)(C)C3)cc1	3.0	.	-0.4%	1.5	-1.4
Nc1c(C(=O)CCC(=O)O)oc2ccc(Cl)cc12	0.0	-46.9	4.0%	0.9	-1.2	Arbovirus inh repeat=6.0
O=S(=O)(c1ccc2ccccc2c1)N1CCN(CCO)CC1	4.5	.	.	.	-1.2
COc1ccc(OCCCC(=O)Nc2nccs2)cc1	3.8	.	-7.6%	.	0.1
O=C(COc1ccc2c(-c3ccccc3)cc(=O)oc2c1)NCCCn1ccnc1	-6.2	.	.	.	11.3
COc1ccccc1-c1cc(C(=O)Nc2c(F)cc(F)cc2Br)no1	-0.5	-16.9	11.2%	11.6	1.7
C=CCOc1ccc(Br)cc1CNCCCN1CCOCC1	0.0	-31.1	-5.1%	-5.8	0.6
CCCn1c(SCC(=O)N2c3ccccc3CCc3ccccc32)nc2c1c(=O)n(C)c(=O)n2C	5.3	-41.4	-13.0%	-10.2	.
O=C(/C=C/Nc1ccc(F)c(Cl)c1)c1ccco1	-1.6	2.5	-12.6%	-5.9	-7.1
O=C1c2ccc([N+](=O)[O-])cc2C(=O)N1Cc1cccnc1	1.4	.	.	.	-6.1
CC(=O)Nc1ccc(NC(=O)C(C)OC(=O)C2(c3ccc(F)cc3)CCCC2)cc1 (stereo unspecified)	-4.0	.	-1.1%	8.8	-3.7
COC(=O)c1ccc(NC(=O)C[n+]2ccccc2C)cc1	0.1	.	.	.	0.3
CC(=O)NCCC(=O)Nc1nc(-c2cccs2)c(-c2cccs2)s1	2.2	17.4	2.0%	-11.8	-1.0
Cc1c(-c2nnc(SCC(=O)O)n2-c2ccccc2Br)nnn1-c1ccccc1	-0.3	-21.3	-4.7%	1.8	2.7
O=C(COC(=O)C1CC2CCCC(C1)C2=O)NNC(=O)c1ccccc1F (stereo unspecified)	62.0	.	.	.	-1.9
COc1ccc2c(c1)C=CC1(O2)N(CCO)c2ccccc2C1(C)C (stereo unspecified)	-1.6	-22.6	-1.7%	1.7	-4.3
c1ccc(Cn2c[n+](Cc3ccccc3)cn2)cc1	-1.5	.	-0.9%	.	.
Cc1ccc(C)c2[nH]c(=O)c(CN(CC3CCCO3)C(=S)NCc3ccco3)cc12 (stereo unspecified)	2.4	.	1.4%	.	-1.4
CCOC(=O)c1c(C)[nH]c(C(=O)N2CCCC(C(=O)c3cccc(OC)c3)C2)c1C (stereo unspecified)	3.8	.	-1.1%	0.9	4.3
COc1ccc(NS(=O)(=O)c2ccc(NC(=O)c3ccccc3)cc2)nn1	-6.9	.	9.0%	1.2	-0.1
Cc1ccc2nc(C)c(C(=O)N/N=C/c3cccs3)n2c1	3.3	-27.9	-0.3%	-1.3	-0.4
Cc1cc(CNC(=O)[C@H](C)[C@@H]2C[C@@]2(C)[C@@H](NC(=O)OCc2ccccc2)c2ccccc2)nn1C	-9.8	-15.6	1.0%	1.3	.
O=C(CN1CCOCC1)Nc1ccc(Oc2ccc(NC(=O)CN3CCOCC3)cc2)cc1	-6.3	-35.5	-5.2%	8.6	6.2
COc1ccccc1OCC(=O)Nc1ccc(S(=O)(=O)N2CCN(C)CC2)cc1	7.3	.	0.2%	5.5	1.7

Quoted at random: 6 entries already listed.
SMILES	Mtb bLac sens	YopH PTP inh	Mtb H37Rv	Arbovirus inh	RecA intein inh	others
CCCCCC1CC(CC(=O)NC(=S)Nc2ccccc2Cl)C(=O)O1 (stereo unspecified)	8.2	.	-2.1%	5.8	3.6
O=C(NCCc1c[nH]c2ccc(Cl)cc12)c1cccnc1	0.2	-17.1	-4.4%	-1.3	-1.7
COc1ccc(C(N)=O)cc1N	-6.5	1.5	-1.9%	1.4	-2.7
CCOc1cc(NC(=S)NCCCOC)c(OCC)cc1NC(=O)c1ccco1	8.9	-18.4	9.4%	-7.7	0.8
Cn1c(=O)c2[nH]c(N3CCOCC3)nc2n(-c2ccccc2)c1=O	1.0	-33.4	-15.9%	2.5	-1.7
COc1ccc(C(NC(=O)C2C3C=CC(C3)C2C(=O)O)c2ccccc2)cc1 (stereo unspecified)	-0.1	.	-0.2%	-0.6	-1.9
